NS1 function inh – blocks influenza NS1 protein function | S. cerevisiae slowed by influenza A NS1, growth recovery by OD600 | Potency, µM (titrated, usually from 46.1 µM), inactives show at the highest dose activity, positive = more growth | actives 0.4% (n = 270,000) | AID 2326; active means well fitted rising curve with a large enough effect; inconclusive means small, poorly fitted or top-dose-only effect; inactive means no such curve, though single readings can be large or run the other way; further: nearly all actives have a fitted effect of over 50% in size
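OD600 was taken as the measure of yeast growth restored by compound in an NS1-expressing S. cerevisiae strain. Cells had been washed out of glucose medium and diluted 1:100 into galactose -URA medium, pH 6.0.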
LASV entry inh – inhibitors of Lassa virus binding or cell entry; Potency, µM (doses to about 37.9 µM), inactives show at the top dose activity change, negative = inhibition, actives largely listed as inhibitors; actives 1.2% (n = 300,000); Lassa virus pseudotype entry inhibition, cell reporter; control for the full effect not named in the record; active means well fitted inhibition curve with a large enough effect; inconclusive means small, poorly fitted or top-dose-only effect, or effect the other way; inactive means flat fitted curve, though single readings scatter; tested in HEK293 cells; further: on the % scale 0 is the no-effect control and ±100 the full control effect; nearly all actives have a fitted effect of over 50% in size; luciferase read-out
Marburg entry inh – Marburg virus entry inhibition; Marburg virus pseudotyped entry inhibition, cell reporter; control for the full effect not named in the record; about a third of the inactives were read at about 46 µM; Potency, µM (doses to about 37.8 µM), without a hit: at the top dose activity change, negative = inhibition, most hits filed as inhibitors; actives 1.8% (n = 300,000); active = well fitted inhibition curve with a large enough effect; inconclusive = small, poorly fitted or top-dose-only effect, or effect the other way; inactive = flat fitted curve, though single readings scatter; tested in HEK293 cells; about a fifth of its hits are not listed in these tables; further: on the % scale 0 is the no-effect control and ±100 the full control effect; luciferase read-out
SARS PLP yeast – inhibitors of SARS-CoV papain-like protease in yeast; S. cerevisiae expressing SARS-CoV PLpro, growth rescue; control for the full effect not named in the record; Potency, µM (titrated, usually from 32.9 µM), inactives show at the top dose activity, positive = growth rescue; actives 0.19% (n = 330,000); active means well fitted rising curve with a large enough effect; inconclusive means small, poorly fitted or top-dose-only effect; inactive means no such curve, though single readings can be large or run the other way; further: 0% is about no effect; nearly all actives have a fitted effect of over 55% in size; growth read by luminescence after 48 h
Cruzain Triton – cruzain (T. cruzi) inhibition with detergent. P25779. purified cruzain, Z-FR-AMC fluorescence, 0.01% Triton. Potency, µM, inactives show max response, negative = inhibition, usual class: inhibitors. actives 0.43% (n = 200,000);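 further: plate controls were neutral wells for no effect and buffer without enzyme for full effect; nearly all actives have a fitted effect of over 40% in size; top concentration of the series not given in the record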
Target sequence (P25779 123-467 limits assumed): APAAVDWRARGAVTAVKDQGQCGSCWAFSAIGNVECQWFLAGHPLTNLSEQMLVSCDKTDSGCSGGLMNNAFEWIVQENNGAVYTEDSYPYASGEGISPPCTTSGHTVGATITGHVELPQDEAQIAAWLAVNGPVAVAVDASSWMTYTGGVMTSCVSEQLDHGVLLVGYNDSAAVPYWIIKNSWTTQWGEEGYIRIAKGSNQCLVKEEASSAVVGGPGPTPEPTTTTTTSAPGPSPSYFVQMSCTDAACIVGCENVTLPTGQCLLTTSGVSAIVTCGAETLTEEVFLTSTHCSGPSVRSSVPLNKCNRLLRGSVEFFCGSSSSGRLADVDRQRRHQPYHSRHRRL
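In this qHTS format, compounds are incubated with 1.5 nM cruzain for 15 min at room temperature before 2 uM Z-FR-AMC is added. Release of AMC is followed at 360/450 nm, and progress is taken as the 60 s fluorescence difference.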
RE007 growth inh – less growth of the S. pombe RE007 Vpr strain; Potency, µM (series often up to 92.2 µM), without a hit: top-dose activity change, negative = less growth; actives 0.21% (n = 360,000); S. pombe RE007 Vpr strain, BacTiter-Glo ATP luminescence, 24 h; control for the full effect not named in the record; AID 651644; active = well fitted falling curve with a large enough effect; inconclusive = small, poorly fitted or top-dose-only effect; inactive = no such curve, though single readings can be large or run the other way;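 further: on the % scale 0 is the no-effect control and ±100 the full control effect; nearly all actives have a fitted effect of over 50% in size; the assay follows cell death caused by Vpr and the record does not say whether a fall means rescue or toxicity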
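Fission yeast RE007 carrying one integrated HIV-1 vpr copy, seeded at OD 0.01 in PMG+AL medium with 23 nL pinned compound. Grown 24 h at 30 degrees; viability read by BacTiter-Glo luminescence after 5 min.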
Cruzain noTriton – inhibitors of Trypanosoma cruzi cruzain without detergent; P25779; purified cruzain, Z-FR-AMC fluorescence, no detergent; Potency, µM, without a hit: max response, negative = inhibition, actives largely listed as inhibitors; actives 2.3% (n = 200,000);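 further: plate controls were enzyme without inhibitor for no effect and buffer without enzyme for full effect; nearly all actives have a fitted effect of over 40% in size; top concentration of the series not given in the record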
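Purified cruzain at 1.5 nM, pre-incubated 15 min with compound at room temperature in 100 mM sodium acetate pH 5.5, 5 mM DTT, 0.00005% Triton X-100. Reaction started with 2 uM Z-FR-AMC; AMC fluorescence increase over 60 s gives rate.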
StopGo reporter – lowers the luciferase signal of an FMDV 2A StopGo reporter; human cells with a luciferase reporter of 2A StopGo recoding; control for the full effect not named in the record; Potency, µM (doses to about 57.9 µM), without a hit: top-dose signal change, negative = less light; actives 1.2% (n = 410,000); AID 1159524; active = well fitted falling curve with a large enough effect; inconclusive = small, poorly fitted or top-dose-only effect; inactive = no such curve, though single readings can be large or run the other way; tested in HEK293T cells; further: on the % scale 0 is the no-effect control and ±100 the full control effect; nearly all actives have a fitted effect of over 45% in size; luciferase light after 4 h
* = called active by the depositor; ? = inconclusive; / = no result given; & = joins results of further samples; [ ] = another dose, or the depositor's remark. Unless noted, the call rests on the fitted dose curve; in most records, active means well fitted curve in the direction sought with a large enough effect; inconclusive means small, poorly fitted or top-dose-only effect, or another doubt; inactive means no such curve, though single readings can be large; an effect the other way counts as inactive or inconclusive. Potency means the concentration at half of the fitted maximal effect. Outcome played no part in choosing rows; overall some 4.7% were active at least once.

Structure	NS1 function inh	LASV entry inh	Marburg entry inh	SARS PLP yeast	Cruzain Triton	RE007 growth inh	Cruzain noTriton	StopGo reporter
O=C(COC(=O)Cc1c(Cl)cccc1Cl)Nc1ccccc1-c1ccccc1	-43%	?	-6%	-64%	-6.0%	7%	3%	?
CCCc1cc(=O)[nH]c(SCC)n1	6%	-1%	2%	0%	-0.5%	8%	-7%	/
COc1ccc(-c2noc(N3CCCC(C(=O)Nc4ccc(C(C)=O)cc4)C3)n2)cc1 (stereo not drawn)	-1%	25%[46.1 µM]	-16%[46.1 µM]	-1%	/	-4%	/	14%
Cc1[nH]c2ccccc2c1C(=O)CCl	7%	/	/	2%	/	-3%	/	25µM*
CCOC(=O)CNc1nc(OCC#N)nc(N2CCOCC2)n1	0%	?	-24%[46.1 µM]	4%	5.0%	7%	-1%	2%
COC(=O)CSc1ncnc2scc(-c3ccccc3)c12	-34%	-20%	-3%[46.1 µM]	-6%	/	2%	/	7%
O=C(NC(NC(=S)N1CCOCC1)C(Cl)(Cl)Cl)c1cccc2ccccc12 (stereo not drawn)	11%	-18%	?	26%	-5.5%	-28%	-3%	-3%
O=C(NCc1ccc2c(c1)OCO2)c1cc(COc2c(F)cccc2F)on1	15%	?	20%	1%	/	40%	/	38%[activator]
Cc1cc(C)cc(OCC(=O)NCCN2CCOCC2)c1	-9%	-1%	17%	6%	2.9%	15%	-3%	-6%
CCSCc1nnc(SCC(=O)Nc2ccc(OC)cc2)n1C	-4%	-5%	-16%[46.1 µM]	0%	/	5%	/	-8%
COc1ccccc1C(CNC(=O)c1cccc(NS(=O)(=O)c2ccc(Br)cc2)c1)N(C)C (stereo not drawn)	/	?	?	-3%	/	1%	/	-7%
CC(C)c1ccc(OCc2ccc(C(=O)O)o2)cc1	-44%	3.5µM*	3.7µM*	2%	/	7%	/	10µM*
COc1cc(/C=C\C(=O)Nc2cc(=O)n(C)c(=O)n2C)cc(OC)c1OC	/	/	0%[46.1 µM]	3%	/	0%	/	-2%
O=C(CCc1ccc(Oc2cc([N+](=O)[O-])cc([N+](=O)[O-])c2)cc1)NC1CCCC1	36%	-2%	-1%	?	-1.3%	-8%	-16%	-27%
Cc1ccc(NC(=O)COC(=O)Cn2c(C)csc2=O)cc1	-16%	-2%	-9%	0%	4.2%	-10%	3%	34%[activator]
Cc1cc(NC(=O)CSc2nc(C3CCCCC3)nc3ccccc23)no1	-7%	-15%	-21%	5%	-8.4%	-2%	-7%	?
CCOc1ccc(N(CC)C(=O)c2cc3c(s2)-c2ccc(Cl)cc2SC3)cc1	/	?	9%[46.1 µM]	/	-2.5%	/	-5%	-21%
COc1cc(NC(=O)c2cccs2)c(OC)cc1NC(=O)CCC(=O)Nc1cccc2ncccc12	4%	/	/	0%	/	17%	/	-30%
CN(Cc1ccccc1)C1CCCN(C(=O)c2ccc(Cl)s2)C1 (stereo not drawn)	-1%	-18%	4%	20%	/	-8%	/	-25%
COc1ccc(Nc2c(-c3cc(Br)ccc3O)nc3ncccn23)cc1OC	/	-3%[46.1 µM]	?	/	-12%	/	-4%	-16%
Cc1ccc(OCC(=O)Nc2cccc(OCc3cc(=O)n4cccc(C)c4n3)c2)cc1C	/	6%[46.1 µM]	/	/	0.4%	/	-1%	-19%
CCCCNC(=S)NCc1ccc2c(c1)cc(C)n2C	24%	12%	-36%	-19%	-1.8%	3%	-11%	-11%
CC1(C)C(c2ccccc2)=[N+]([O-])C2(CCCCC2=O)N1O (stereo not drawn)	2%	-8%	-1%	-3%	-2.9%	15%	1%	-4%
Cc1ccccc1CN1CCC(CNc2ncnc3onc(-c4ccc(F)cc4)c23)CC1	/	23%[46.1 µM]	/	/	4.0%	/	2%	-19%
COc1cc2c(cc1OC)C(c1ccccc1)NCC2 (stereo not drawn)	-5%	25%[46.1 µM]	-12%[46.1 µM]	-1%	/	-4%	/	-21%
CC(C)OC(=O)c1nn2c(C(F)(F)F)cc(-c3ccco3)nc2c1Cl	0%	-10%	-4%	-10%	-4.5%	-1%	-16%	-18%
Cc1cccc(-n2c(O)c(C=Nc3c(C)n(C)n(-c4ccccc4)c3=O)c3ccccc3c2=O)n1	-3%	-2%[46.1 µM]	-23%[46.1 µM]	5%	1.7%	3%&-14%	1%	-18%&0%
COc1ccccc1C(=O)NNC(=O)C(=O)NCc1ccccc1	-8%	10%	?	0%	/	4%	/	-11%
CCCCOC(=O)n1ccc(C(=O)Nc2ccccc2OC)n1	-33%	2%	10%	-4%	-17%	5%	5%	/
CC(=O)Oc1ccc(C(=O)Nc2cccc(-c3nnc(-c4ccco4)o3)c2)cc1	2%	?	11µM*	1%	/	2%	/	-9%
O=C(CCNC(=O)c1ccco1)Nc1nc2ccccc2s1	/	29%[46.1 µM]	21%	-4%	/	-2%	/	67%[activator]
Cc1cc(C)n(-c2nnc(C)n2NS(=O)(=O)c2ccc(F)cc2)n1	0%	-1%	?	1%	4.7%	4%	-5%	/

Part of the list above in order of SMILES length, largest number first:
Structure	NS1 function inh	LASV entry inh	Marburg entry inh	SARS PLP yeast	Cruzain Triton	RE007 growth inh	Cruzain noTriton	StopGo reporter
CC(C)OC(=O)c1nn2c(C(F)(F)F)cc(-c3ccco3)nc2c1Cl	0%	-10%	-4%	-10%	-4.5%	-1%	-16%	-18%
Cc1cc(C)n(-c2nnc(C)n2NS(=O)(=O)c2ccc(F)cc2)n1	0%	-1%	?	1%	4.7%	4%	-5%	/
O=C(CCNC(=O)c1ccco1)Nc1nc2ccccc2s1	/	29%[46.1 µM]	21%	-4%	/	-2%	/	67%[activator]

Further entries:
Structure	NS1 function inh	LASV entry inh	Marburg entry inh	SARS PLP yeast	Cruzain Triton	RE007 growth inh	Cruzain noTriton	StopGo reporter
COc1ccc(NC(=S)NC23CC4CC(CC(C4)C2)C3)cc1OC	10%	1%	8%	-3%	/	23%	/	19%
C=CCn1c(SCC(=O)NCc2ccc3c(c2)OCO3)nc2scc(-c3ccc(F)cc3)c2c1=O	5%	?	?	8%	4.0%	3%	?	-13%
O=C(COc1ccccc1)NCc1cccs1	1%	5%	?	-14%	-3.6%	-5%	4%	28%
CCOC(=O)C1(CCSC)NC(c2ccco2)C2C(=O)N(C)C(=O)C21 (stereo not drawn)	3%	2%	?	4%	0.4%	3%	3%	7%
CC(C)CN(CC(C)C)C(=O)Nc1ccccc1F	/	24%[46.1 µM]	-13%[46.1 µM]	-1%	/	-26%	/	-14%
COc1cccc(C2C=C(c3ccc(C)cc3)Nc3c(C(=O)Nc4ccc(F)cc4)cnn32)c1OC (stereo not drawn)	/	?	/	/	-4.6%	/	-3%	-21%
Cc1ccc(NCc2cccn2-c2nnc(N3CCC(C(=O)NCc4ccccc4C)CC3)s2)cc1	/	/	6%[46.1 µM]	/	-4.7%	/	-20%	-19%
Cc1ccc(C(=O)NCC(=O)OCc2c(F)cccc2Cl)s1	/	?	3%	-1%	/	8%	/	67%[activator]
COc1ccccc1NC(=O)CSc1nnc2c(n1)[nH]c1ccccc12	/	11µM*	8%[46.1 µM]	/	-4.0%	/	-8%	?
O=C1CC(NS(=O)(=O)c2cccs2)CN1c1ccc(F)cc1 (stereo not drawn)	/	-5%	4%[46.1 µM]	2%	/	21%	/	-3%
Cc1ccccc1C(=O)c1cccn1CC(=O)NCc1ccc2c(c1)OCO2	-62%	24%	13%	-4%	-4.7%	-8%	9%	62%[activator]
CC(C)N1CCN(Cc2cnc(N3CCCC3)s2)CC1CCO (stereo not drawn)	4%	17%	27%[46.1 µM]	1%	/	19%	/	-3%
Cc1ccc(-c2nc3ncccc3n2O)cc1	2%	/	/	-1%	/	3%	/	15%
Cc1cc(C)c(CN2CCN(C(=O)Cn3cnc(C(=O)Nc4ccc(C)c(C)c4)n3)CC2)c(C)c1	/	/	-4%	-8%	/	0%	/	?
O=c1ccnc(Nc2ccc([N+](=O)[O-])cc2)[nH]1	/	-13%[46.1 µM]	?	/	/	10%	/	-7%
CCc1ccc(N2C(=O)CSC23C(=O)N(Cc2cccc(OC)c2)c2ccccc23)cc1 (stereo not drawn)	/	-1%[46.1 µM]	/	/	-6.2%	/	3%	-19%
Clc1ccc(-c2noc(-c3cccnc3NCc3ccco3)n2)cc1	/	7%[46.1 µM]	5%[46.1 µM]	/	-3.5%	/	23%	45%[activator]
COc1ccc(CCN(Cc2ccccn2)C(=S)Nc2ccccc2F)cc1OC	/	7%	20%[46.1 µM]	6%	/	-2%	/	31%[activator]
CCOC(=O)c1sc(NC(=O)c2cccs2)cc1C	-69%	?	?	-2%	-1.0%	-21%	7%	50%[activator]
Cc1ccccc1C(=O)Nc1cccc(NC(=O)c2ccc(C(C)(C)C)cc2)c1	/	?	/	/	-0.1%	/	-14%	-18%
CCNC(=O)NC(=O)C(C)OC(=O)C(C)(C)Oc1ccc(Cl)cc1 (stereo not drawn)	/	?	1%[46.1 µM]	-1%	/	8%	/	-16%
CCOc1ccc2nc(N/C(N)=N/C(=S)Nc3ccc(OC)cc3)nc(C)c2c1	2%	/	/	0%	/	-14%	/	-8%
Cc1cccc(C(=O)NCC(C)NC(=O)c2cccc(C)c2)c1 (stereo not drawn)	-1%	-10%	?	/	/	-5%	/	-14%
O=C(c1ccc(-n2cncn2)c([N+](=O)[O-])c1)N1CCN(c2cccc(Cl)c2)CC1	-47%	-1%	?	-6%	/	4%	/	?
Cc1ccc(CC(=O)N/N=C/c2ccc(OC(=O)c3ccc([N+](=O)[O-])cc3)cc2)cc1	12%	-2%	5%	-4%	-1.7%	-3%	?	-14%

Source: PubChem BioAssay (National Center for Advancing Translational Sciences (NCATS))
